Screening data as filed in PubChem BioAssay.
RN4220 kill: growth inhibition of S. aureus RN4220, primary screen, OD600 | 16 h | AID 1259311, 2017 | 330,000 tested, 0.33% active | inhibition, % (test concentration not listed);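 active = z-score of -3 or lower and OD600 up to 0.18 on both plates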;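 note: plate controls were untreated cells for no effect and reference antibiotic for full effect; stock transfer was 100 nL into about 80 µL; one replicate is shown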
BJeLR lethal: MLPCN primary cell-based screen for lethality selective to Ras in HRASV12 cells | BJeLR (HRASV12) viability, CellTiter-Glo ATP luminescence, 48 h; reference of the scale not given here | inhibition, % (no concentration beside the values) | 300,000 tested, 0.17% active | AID 1554, 2009;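 active = replicate mean above 50%; inconclusive = above 50% but judged a plate artefact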;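 note: 50 nL library stock added to about 25 µL; numbers are from one replicate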
ugtP null kill: growth inhibition of ugtP-null S. aureus, primary screen, RN4220 ugtP deletion, OD600. 16 h; some inactives read as strong as hits. growth inhibition, % (test concentration not listed). AID 1259309, 2017. 330,000 tested, 0.54% active;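 active = z-score under -3 and OD600 up to 0.15 on both plates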;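 note: plate controls were untreated wells for no effect and antibiotic for full effect; wells of about 80 µL received 100 nL stock; the first replicate is given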
PrP 5UTR inh: inhibition of PrP 5' UTR reporter expression; cell-based PrP 5' UTR mRNA reporter, plate reader; inhibition, % (concentration not given with the values); 340,000 tested, 0.35% active; AID 488862, 2010;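 active = every replicate at 50% or more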;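 note: 0 = median of the neutral control wells; tested in H4 reporter cells; numbers are from one replicate; inactives centre near -14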
Bead autofluor: compound fluorescence in toxin protease inhibitor counterscreen. fluorescence intensity (no concentration beside the values). compound autofluorescence counterscreen, microsphere flow cytometry; active compounds read high. 360,000 tested, 3.1% active;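 active = at least 3 SD above the mean of all compounds, about 16000 in these data; inconclusive = too few beads counted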;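 note: 100 nL of 1 mM stock went into each well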
Mtb hypoxia rep: PubChem AID 1159583. M. tuberculosis hypoxia-regulated fluorescent reporter, fluorescence. fluorescence inhibition, % (concentration not given with the values). 300,000 tested, 0.1% active;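 active = 35 to 45% if threefold the growth effect, above 45% if 1.5-fold the growth effect; inactive = the rest, general growth blockers included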;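 note: wells of about 50 µL received 100 nL stock; 0% = vehicle wells and 100% = reference inhibitor wells; whole bacteria with a GFP reporter of the hypoxia response; strong numbers were not always called active; many hits fall short of the cut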
Mtb hypoxia rep growth: further read-out of Mtb hypoxia rep, marked with its call; growth inhibition, %; measured here: M. tuberculosis growth (absorbance);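 0% = vehicle and 100% = reference antibiotic; read after six days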
Starred values were filed as active, the others as inactive; ? = inconclusive; nt = no result given. The order is random; overall some 3.9% were active at least once.

Values run as follows: RN4220 kill, BJeLR lethal, ugtP null kill, PrP 5UTR inh, Bead autofluor, Mtb hypoxia rep, Mtb hypoxia rep growth
- Cc1cc(C(=O)N2CCCC2C(=O)O)c(C)o1 (centres undefined)
→ 1.2, 1, 2, -14, 22740*, 2, 4
- COc1cc(C(=O)NCC(=O)NN=C(C)/C=C/c2ccccc2)cc(OC)c1OC
→ -0.5, nt, 12, nt, nt, 5, -2
- O=C(NC(=S)NCCN1CCOCC1)c1ccc(Cl)cc1
→ 0.1, -5, 6, -26, 2220, -1, 2
- O=C(O)c1ccc(S(=O)(=O)c2ccccc2C(=O)O)c([N+](=O)[O-])c1
→ -2.3, 6, 13, -25, 4192, -4, -1
- CCOc1ccc(N/C(N)=N/c2nc(CSc3nnnn3-c3ccccc3)cc(=O)[nH]2)cc1
→ 6.4, -4, 13, -4, 4680, -2, -4
- COc1ccc(/C=C2\SC(=O)N(CC(=O)NNC(=O)c3ccccc3O)C2=O)cc1
→ 9.0, -4, -3, -18, 2393, 8, -3
- COc1ncnc2c1oc1nc(C)c3c(c12)CC(C)(C)OC3
→ 2.4, 6, -1, nt, 5703, -4, 16
- CN(CCOC(=O)c1cccc(Br)c1)C(C)(C)C
→ 6.9, 0, 4, 7, 2998, -3, -2
- CCOC(=O)c1[nH]c2ccccc2c1N=CN(CC)CC
→ -0.7, 5, 1, -9, 3792, 10, 3
- O=C(O)c1cccc(Nc2ccncc2[N+](=O)[O-])c1
→ 5.0, 8, 12, -22, 3824, -1, 6
- O=C(CN(CC1CCCO1)C(=O)CNS(=O)(=O)c1ccc(F)cc1)NCC1CCCO1 (centres undefined)
→ 2.5, 0, 3, -20, 4005, 18, 0
- Cc1cc(Cl)ccc1OCC(=O)N/N=C1\CC2C=CCC12 (centres undefined)
→ nt, 0, nt, -9, 2087, nt, nt
- COc1cc(/C=N/NC(=O)c2nonc2N)cc(OC)c1OC
→ nt, 1, nt, -8, 4218, nt, nt
- CNCC(C)NCC(Cc1ccccc1)NCCc1ccccc1 (centres undefined)
→ -2.6, nt, -2, nt, nt, -3, 1
- CCc1cc(=O)oc2c(C)c(OCC(=O)N3CCCc4ccccc43)ccc12
→ -0.5, -5, 2, -9, 3109, 1, 3
- c1ccc(-c2ccccc2OCCOCCN2CCCCC2)cc1
→ 4.5, 1, 2, -17, 2136, 14, 2
- O=c1oc2ccccc2c(N2CCC(c3ccccc3)CC2)c1[N+](=O)[O-]
→ 1.2, -1, 9, -28, 2169, 14, 13
- COc1ccc(CCNC(=O)CCCc2ccccc2)cc1OC
→ 3.7, -11, 6, -18, 3365, -3, 5
- O=c1c2ccccc2oc2cc(NCCCn3ccnc3)ccc12
→ nt, -6, nt, -45, 3056, nt, nt
- Cc1cc(C(=O)NCC(=O)OCC(=O)Nc2ccc(OC(F)F)cc2)ccc1[N+](=O)[O-]
→ 3.0, 4, 3, -25, 2009, 7, 6
- CCOc1ccccc1Nc1nnc(SCC(=O)Nc2ccc3[nH]c(=O)[nH]c3c2)s1
→ nt, -7, nt, 10, 4549, nt, nt
- CC(=O)Nc1nnc(CCN(CCc2nnc(NC(C)=O)s2)[N+](=O)[O-])s1
→ 5.9, -11, 13, -2, 6116, 5, 0
- CCCCn1c(N)c(N(CC(C)C)C(=O)c2cccc(S(=O)(=O)N3CCCCC3)c2)c(=O)[nH]c1=O
→ 6.7, -1, 14, -9, ?, 6, -2
- COC(=O)C1Cc2c([nH]c3ccccc23)C2(CCN(Cc3ccccc3)CC2)N1 (centres undefined)
→ -0.4, 4, 3, -4, 7106, -4, -5
- Cc1ccc2nc(C3CCCN3Cc3nc(CCC(C)C)no3)[nH]c2c1 (centres undefined)
→ 10, -1, 3, -18, 3846, 14, 1
- O=C(CN1CCc2ccccc21)NN1CC(=O)N(c2ccccc2)CC1=O
→ 3.5, 8, 0, 5, 4385, -3, 9
- O=C(C1COc2ccccc2O1)N1CCCCC1 (centres undefined)
→ 6.7, nt, 3, -16, nt, nt, nt
- CCCCN1CCc2c([nH]c3ccc(C)cc23)C1=O
→ 4.6, -20, -5, -127, ?, 5, 14
- COc1ccc(/C=C2\N=C(C(C)(C)C)OC2=O)c(OC)c1
→ 3.4, -11, 12, -7, 4471, 4, -4
- c1ccc(SCCOCCN2CCOCC2)cc1
→ 6.5, -3, -1, -25, 3827, 15, 6

Individual results from the results shown:
COc1ccc(/C=C2\N=C(C(C)(C)C)OC2=O)c(OC)c1 in BJeLR lethal = -11
COc1ccc(CCNC(=O)CCCc2ccccc2)cc1OC in BJeLR lethal = -11
O=C(CN1CCc2ccccc21)NN1CC(=O)N(c2ccccc2)CC1=O in Mtb hypoxia rep growth = 9
CCCCn1c(N)c(N(CC(C)C)C(=O)c2cccc(S(=O)(=O)N3CCCCC3)c2)c(=O)[nH]c1=O in Mtb hypoxia rep = 6
Cc1ccc2nc(C3CCCN3Cc3nc(CCC(C)C)no3)[nH]c2c1 (centres undefined) in RN4220 kill = 10
CC(=O)Nc1nnc(CCN(CCc2nnc(NC(C)=O)s2)[N+](=O)[O-])s1 in ugtP null kill = 13
c1ccc(-c2ccccc2OCCOCCN2CCCCC2)cc1 in Mtb hypoxia rep = 14

New compounds follow
Values run as follows: RN4220 kill, BJeLR lethal, ugtP null kill, PrP 5UTR inh, Bead autofluor, Mtb hypoxia rep, Mtb hypoxia rep growth
- O=[N+]([O-])c1ccccc1NN=Cc1cc2ccccc2nc1Cl
→ 4.2, nt, -19, nt, nt, 7, 3
- C=CCc1cccc(/C=N/NC(=O)CCC(=O)Nc2ccc(F)cc2)c1O
→ nt, 4, nt, -1, 2036, nt, nt
- Cc1cc([N+](=O)[O-])nn1CC(=O)Nc1cc(F)ccc1F
→ 2.2, 20, -1, 2, 4319, 13, 4
- CN(C)S(=O)(=O)c1cccc(-c2csc(N/N=C/c3ccco3)n2)c1
→ nt, -2, nt, -7, 4483, nt, nt
- O=S(=O)(c1ccccc1)N1CCN(c2ccccc2)CC1
→ 1.2, -3, 2, -5, nt, 9, 5
- O=C(COC(=O)[C@H](Cc1ccccc1)NC(=O)c1ccco1)NC(c1ccccc1)c1ccccc1
→ -3.5, -4, -4, -11, 3721, nt, nt
- CCC(CC)C(=O)Nc1nnc(SCC(=O)NC(C)(C)C)s1
→ 5.6, 3, 9, -9, 4865, 11, 8

Given in CSV form: part of the list above
canonical_smiles,RN4220 kill,BJeLR lethal,ugtP null kill,PrP 5UTR inh,Bead autofluor,Mtb hypoxia rep,Mtb hypoxia rep growth
C=CCc1cccc(/C=N/NC(=O)CCC(=O)Nc2ccc(F)cc2)c1O,nt,4,nt,-1,2036,nt,nt
Cc1cc([N+](=O)[O-])nn1CC(=O)Nc1cc(F)ccc1F,2.2,20,-1,2,4319,13,4
CN(C)S(=O)(=O)c1cccc(-c2csc(N/N=C/c3ccco3)n2)c1,nt,-2,nt,-7,4483,nt,nt
O=S(=O)(c1ccccc1)N1CCN(c2ccccc2)CC1,1.2,-3,2,-5,nt,9,5
